# Polio RdRp inh – poliovirus RdRp elongation inhibitors, primary screen, biochemical, fluorescence polarization, total intensity; actives 0.66% (n = 150,000); AID 588519, 2011; poliovirus polymerase elongation; hits give low values; % elongation, % (compound at 16.7 µg/mL); Genome polyprotein (Poliovirus type 1 (strain Mahoney)), P03300; in the data active means % elongation below about 90%; further: some results filed as inactive read as strong as hits
# Target sequence (P03300 1749-2209 limits assumed): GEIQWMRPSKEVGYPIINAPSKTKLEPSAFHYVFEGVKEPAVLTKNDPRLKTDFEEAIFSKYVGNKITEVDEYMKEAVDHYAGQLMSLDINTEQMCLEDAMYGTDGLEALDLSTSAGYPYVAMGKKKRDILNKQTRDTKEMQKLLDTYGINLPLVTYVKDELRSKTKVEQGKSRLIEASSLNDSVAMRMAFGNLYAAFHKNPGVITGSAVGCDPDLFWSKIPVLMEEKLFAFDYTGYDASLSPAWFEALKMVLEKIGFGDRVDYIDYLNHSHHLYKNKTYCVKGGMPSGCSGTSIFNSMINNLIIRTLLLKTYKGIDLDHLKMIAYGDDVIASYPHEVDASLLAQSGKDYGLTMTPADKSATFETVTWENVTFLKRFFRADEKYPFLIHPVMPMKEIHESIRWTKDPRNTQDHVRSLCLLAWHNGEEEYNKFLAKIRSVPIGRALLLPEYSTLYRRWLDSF
# Mtb MenB inh – M. tuberculosis MenB inhibitors, primary screen, biochemical, absorbance. inhibition, %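 (about 12 µg/mL by stock and volumes)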. 1,4-dihydroxy-2-naphthoyl-CoA synthase (Mycobacterium tuberculosis (strain ATCC 25618 / …. actives 0.43% (n = 100,000). MenB enzyme assay, absorbance read-out; some hits fall short of the stated cut;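 active means mean of two replicates above 30%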;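 further: 0% = no compound and 100% = wells with inactive enzyme; the first replicate is given; strong numbers were not always called active; inactives centre near -10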
# Target sequence (P9WNP5 whole entry, looked up): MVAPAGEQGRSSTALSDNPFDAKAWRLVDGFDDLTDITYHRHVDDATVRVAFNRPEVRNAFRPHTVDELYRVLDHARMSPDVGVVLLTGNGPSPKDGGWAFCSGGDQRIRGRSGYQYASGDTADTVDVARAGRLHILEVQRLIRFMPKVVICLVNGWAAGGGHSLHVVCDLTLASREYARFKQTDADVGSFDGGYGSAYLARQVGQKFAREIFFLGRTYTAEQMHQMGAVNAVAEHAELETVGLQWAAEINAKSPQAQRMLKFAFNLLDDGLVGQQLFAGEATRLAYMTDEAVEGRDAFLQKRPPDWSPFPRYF
# MbtI inh – MbtI salicylate synthase inhibitors, primary screen, biochemical, fluorescence intensity. purified MbtI enzyme, fluorescence intensity read-out. inhibition, %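 (about 17 µg/mL by stock and volumes)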. actives 0.89% (n = 100,000);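 active means above 50% in both replicates, above 80% if mildly self-fluorescent; inactive means the rest, strongly fluorescent compounds included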;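 further: 0% = mean of negative and 100% = mean of positive controls; one replicate is shown; some compounds called inactive have numbers as strong as hits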
# Polio RdRp inh intensity – further read-out of Polio RdRp inh, marked with its call; % elongation; measured here: total intensity read-out; formula for this scale not given here;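 total fluorescence in place of polarization; lower means less elongation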
# An asterisk follows results filed as active; i = inactive; · = no result given; & = joins results of further samples. Outcome played no part in choosing rows. Share with any hit: about 1.8%.
# Each structure is followed by: Polio RdRp inh, Polio RdRp inh intensity, Mtb MenB inh, MbtI inh
NC(=O)COC(=O)C1CSC2(c3ccc(F)cc3)CCC(=O)N12 (configuration not stated)
  97, 94, -24, -10
COc1ccccc1OCc1nc2ccccc2n1CC(C)C
  104, 104, 4, 12
COc1ccc(NC(=O)C2C(=O)NC3(C)CC2c2ccccc2O3)cc1 (configuration not stated)
  103, 103, -11, 6
O=C1N=C(N2CCOCC2)SC1=C1CCCC1
  104, 106, -16, 6
COC(=O)c1oc2ccccc2c1COc1ccccc1
  108, 106, -30, -7
NC(=O)c1ccccc1NC(=O)COc1ccc2c(c1)OCO2
  101, 101, -79, 7
Nc1[nH]c(=S)ncc1S(=O)(=O)c1ccccc1
  103&103, 109&109, -1&-18, 46&7
CCN1C(=O)NC(=O)/C(=C\c2cn(CC(=O)N3CCCCC3C)c3ccccc23)C1=O (configuration not stated)
  83, 123, -124, -1
CCN(CC)S(=O)(=O)c1cc(Br)cnc1N
  105, 105, -4, 3
Cc1ccc2c(c1)C1C3CCC(C3)C1S(=O)N2 (configuration not stated)
  99, 100, 2, 0
CC[C@H]1OC(=O)[C@H](C)[C@@H](OC2CC(C)(OC)C(O)C(C)O2)[C@H](C)[C@@H](OC2OC(C)CC(N(C)C)C2O)[C@](C)(O)C[C@@H](C)/C(=N\OCOCCOC)[C@H](C)[C@@H](O)[C@]1(C)O (some centres not stated)
  102, 101, -3, -9
CCCCN1CCN(c2nc(-c3ccccc3)c3cc(C)ccc3n2)CC1
  104, 106, -24, 1
CC(=O)N1CCc2cc(N=Cc3ccc(Cl)cc3)ccc21
  115, 129, -16, -7
Cc1ccc(S(=O)(=O)N2Cc3ccccc3C(C)CC23CCCCC3)cc1 (configuration not stated)
  103, 106, -26, -1
COc1ccc(-n2cc(C(=O)NCCN(Cc3ccco3)C3CCCC3)c3ccccc3c2=O)cc1
  99, 102, -20, -12
Cc1ccnn1Cc1cc(C(=O)O)c2ccccc2n1
  102, 102, 2, 2
Cc1cc(/C(N)=N/OC(=O)c2snnc2C)no1
  100, 94, -10, 5
NS(=O)(=O)c1ccc(-n2cccc2C=C2C(=O)NC(=S)NC2=O)cc1
  100, 104, -6, 97*
COc1ccc(C)cc1NC(=O)C(OC(=O)C1=NNC(=O)CC1)c1ccccc1 (configuration not stated)
  98, 103, 3, 2
Nc1nc(-c2ccc(OC(F)F)cc2)cs1
  104, 102, -1, 0
Cc1ccc(/C=C/C(=O)N[C@@H](Cc2ccccc2)c2nc3ccccc3[nH]2)o1
  104, 110, 0, 62
CCOC(=O)c1cccc(NC(=O)c2ccc(-c3ccccc3)s2)c1
  101, 105, 2, 44
CC(NC(=O)c1ccc(C23CC4CC(CC(C4)C2)C3)cc1)C(=O)O (configuration not stated)
  101, 104, -9, -6
Cc1c(C)c(C)c(CN2CCCCC2)c(C)c1C
  100, 103, -11, -2
COc1ccc(-c2c(C)c3ccccc3oc2=O)cc1
  99, 94, 1, ·
Cc1ccc(CNC(=O)CCS(=O)(=O)c2ccc3c(c2)oc(=O)n3C)cc1
  100, 100, 3, -20
COc1ccccc1NC(=S)N(CCO)Cc1cc2cc3c(cc2[nH]c1=O)OCCO3
  106, 99, -39, -88
Cc1noc(C)c1NC(=O)NCc1ccc2c(c1)OCO2
  102, 109, -17, -11
N#Cc1nc(-c2ccc(Cl)cc2)oc1NCCc1ccccc1
  101, 109, -23, 104
CC(C)(C)c1csc(SCC(=O)Nc2nccs2)n1
  103, 102, -17, 4
CCCN1C(=O)C2(c3ccccc31)c1c(oc3ccccc3c1=O)C(=O)N2CCOC (configuration not stated)
  107, 104, -20, 9
CSc1nnc(C)c(=O)n1COC(=O)C1CC(=O)N(c2ccc(C)cc2)C1 (configuration not stated)
  105, 100, -11, 9
NCc1ccc(CO)cc1
  102, 103, 20, -2
COc1cccc(NC(=O)c2ccc(-n3cnc4cccnc43)cc2)c1
  103, 105, -19, i
CN1c2ccccc2Oc2nnc(N3CCN(c4ccccc4)CC3)cc21
  103, 106, -42, 11
N#CCC(c1ccccc1)c1ccccc1
  100, 96, -14, -4
CCOc1ccc(C(=O)N/N=C/c2c(C)[nH]c(=O)[nH]c2=O)cc1
  102, 101, -14, 5
O=C(O)Cc1c(C(=O)O)[nH]c2ccc(C(=O)O)cc12
  98, 100, 31, 91
O=C1/C(=C/c2ccco2)N=C(c2ccccc2)N1/N=C/c1ccc(F)cc1
  129, 170, 9, -2
CC[n+]1c(C)n(-c2ccccc2)c2ccc(N)cc21
  ·, ·, 6, 5
C#CC(CC)(CC)NC(=O)c1c(C)noc1C
  103, 102, -10, -14
C=CCN1C(=O)S/C(=C/c2ccc(C(=O)O)cc2)C1=O
  102, 103, 7, 3
Clc1ccc(CCN2COc3ccc(Cl)cc3C2)cc1
  105, 110, -7, ·
CCOC(=O)N/N=C/c1ccc(OC)c(CN2CCOCC2)c1
  102, 101, -5, 1
O=C(NCCc1ccccc1)c1csc2c1CCCCC2
  102, 103, -15, -14
NC(=S)Cc1c(Cl)sc2ccc(Cl)cc12
  100, 99, -23, -3
Nc1ccc(Cc2ccc(N)c(N)c2)cc1N
  83, 192, -11, 7
COc1ccc(Nc2n[nH]c(N)c2C(N)=O)cc1
  100, 102, 6, -2
COn1c(C)c(C)c2c3no[n+]([O-])c3ccc21
  99, 104, -107, -44
CCNC(=O)Cn1c(=O)c2c(ncn2Cc2ccccc2)n(Cc2ccccc2)c1=O
  102, 110, 12, -1
COc1ccc(-c2ccc(C#N)c(SCc3ccccn3)n2)cc1
  102, 105, 8, 88
Cc1ccc(Nc2nc(CSc3nnc(C)n3Cc3ccccc3)cs2)cc1
  105, 109, -32, -1
Cn1c(=O)c(C(=O)NCc2cccnc2)cc2cccnc21
  111, 107, -18, 106
c1ccc(CSc2nc3ccccc3n3cnnc23)cc1
  103, 105, -4, -1
COc1cc(N)c(Cl)cc1C(=O)OCC(=O)N(C)C1CCCCC1
  101, 100, -3, 12
N/C(=N\c1nc2ccccc2o1)NC(=O)/C=C/c1ccco1
  100, 104, 7, 13
N=C1SCC(=O)N1/N=C/c1ccccc1
  100, 103, -24, 16
Cc1ccc(S(=O)(=O)NCCN2C(=N)N(c3nc(N(C)C)nc(N(C)C)n3)CC2=O)cc1
  99, 102, 0, -5
O=C(c1ccc(N2CCOCC2)nc1)N1CCSCC1
  105, 109, -16, -3
CCOC(=O)c1oc2ccccc2c1CN1NS(=O)(=O)c2ccccc2C1=O
  100, 108, 7, 1

# Carrying on.
# Each structure is followed by: Polio RdRp inh, Polio RdRp inh intensity, Mtb MenB inh, MbtI inh
O=C(c1ccc2nsnc2c1)N(Cc1ccccn1)Cc1ccccn1
  107, 110, -29, 3
S=C(Nc1ccccc1)N1CCN(Cc2ccccc2)CC1
  100, 101, 6, 0
O=C(c1cnn(-c2ccccc2)c1-n1cccc1)N1CCc2ccccc21
  101, 105, 0, -8
CC(C)(C)c1cc2nc(C(F)(F)F)cc(Sc3ccccc3)n2n1
  100, 92, 4, 2
CCc1ccc(NC(=O)CC(C(=O)O)N2CCCCC2)cc1 (configuration not stated)
  100, 105, 8, -3
Cc1ccc(C)c(S(=O)(=O)Nc2ccc3oc4c(c3c2)CC(C(C)(C)C)CC4)c1 (configuration not stated)
  102, 105, -15, -14
N/C(Cc1ccc(Cl)cc1Cl)=N\OC(=O)c1ccc(Br)o1
  100, 102, -30, -18
C[N+]1=C(/C=C/Nc2ccccc2)SCC1
  103, 102, -14, -8
CC(=O)Nc1nnc(SCC(=O)N2CCCC2)s1
  102, 101, -16, 1
NS(=O)(=O)c1ccc(NC(=O)C2=COCCO2)cc1
  102, 100, -13, 2
C/C(=N\N1C(=O)CN(Cc2ccccc2)C1c1ccco1)c1ccc(Cl)cc1 (configuration not stated)
  102, 101, -26, -9
COC(=O)C12CC3CC(CC(NC(C)=O)(C3)C1)C2
  99, 103, -15, -7
Cc1ccc2[nH]c(=O)c(NCN3CCCCC3)c(-c3ccccc3)c2c1
  96, 108, -20, -53
CC(C)N1C(=O)S/C(=C\c2ccc(-c3cccc(C(F)(F)F)c3)o2)C1=O
  101, 102, -36, -3
O=C(CCc1ccco1)Nc1cccc(-c2nc3ccccc3[nH]2)c1
  101, 121, -20, -23
Cc1ccc(OCC(=O)N2CCC(C)CC2)cc1C
  104, 101, -36, -5
Cc1cccc(C(=O)N2CCN(c3ccc(N4CCOCC4)nn3)CC2)c1
  102, 106, -9, -13
O=C1Nc2cc(C(=O)N3CCN(C(=O)c4ccco4)CC3)ccc2Sc2ccccc21
  104, 103, -9, 11
CCc1ccccc1N(CC)C(=O)Cn1ncc2c1-c1ccccc1OC2
  102, 105, -24, 6
Cn1c(=O)c2c(nc(N3CCN(C(=O)c4ccco4)CC3)n2CCSc2ncccn2)n(C)c1=O
  103, 98, -25, 9
CCOC(=O)N1CCC(NC(=O)C2CCCN(Cc3nc(-c4cccc(C)c4)oc3C)C2)CC1 (configuration not stated)
  104, 108, -22, -1
O=C(NCC1CCN(Cc2ccc(Cl)cc2)CC1)c1[nH]nc2c1COc1ccccc1-2
  101, 102, -33, 0
CNC(=S)N(Cc1ccco1)Cc1cc2cc(C)ccc2n2nnnc12
  104, 102, -27, -6
COC(=O)c1cc(OC)c(OC)cc1N1C(=O)CCC1=O
  104, 92, -19, -41
CCOC(=O)N1CCN(C(=O)CNC(=S)N(Cc2cccs2)C2CCCCC2)CC1
  103, 101, -14, 16
O=C(c1ccccc1)N1CCC(c2nc3c(nnn3Cc3ccccc3)c(=O)[nH]2)CC1
  99, 101, 23, -2
CC1CCc2cc(F)ccc2N1S(=O)(=O)c1c(N)n(C)c(=O)n(C)c1=O (configuration not stated)
  100, 108, -23, 6
O=C(COC(=O)c1ccccc1F)NC(c1ccccc1)c1ccccc1
  103, 103, ·, -5
Cc1ccc(NC(=O)CCc2c(C)nn3cnnc3c2C)cc1
  99, 103, -7, 17
CC(C)NCC(O)c1ccc(NS(C)(=O)=O)cc1 (configuration not stated)
  100, 104, 8, -3

# Part of the list above in order of molar mass, rising:
# Each structure is followed by: Polio RdRp inh, Polio RdRp inh intensity, Mtb MenB inh, MbtI inh
Cc1ccc(OCC(=O)N2CCC(C)CC2)cc1C
  104, 101, -36, -5
CC(C)NCC(O)c1ccc(NS(C)(=O)=O)cc1 (configuration not stated)
  100, 104, 8, -3
CCc1ccccc1N(CC)C(=O)Cn1ncc2c1-c1ccccc1OC2
  102, 105, -24, 6
O=C(COC(=O)c1ccccc1F)NC(c1ccccc1)c1ccccc1
  103, 103, ·, -5
Cc1cccc(C(=O)N2CCN(c3ccc(N4CCOCC4)nn3)CC2)c1
  102, 106, -9, -13
CC(C)N1C(=O)S/C(=C\c2ccc(-c3cccc(C(F)(F)F)c3)o2)C1=O
  101, 102, -36, -3
CC1CCc2cc(F)ccc2N1S(=O)(=O)c1c(N)n(C)c(=O)n(C)c1=O (configuration not stated)
  100, 108, -23, 6

# Additional records.
# Each structure is followed by: Polio RdRp inh, Polio RdRp inh intensity, Mtb MenB inh, MbtI inh
COc1ccc(NC(=O)CSc2nc(O)cc(=O)n2-c2ccccc2OC)cc1
  102, 104, -117, 6
OC1(c2cccnc2)CCNCC1
  104, 100, -59, -7
N#Cc1cnc(SCC(=O)Nc2cc(Cl)ccc2O)nc1N
  99, 106, -26, -53
COC(=O)N/N=C\c1cccc(OC(=O)c2cccs2)c1
  104, 101, -13, 3
CC1CC(C)CN(C(=O)COC(=O)Cc2coc3cc(O)ccc23)C1 (configuration not stated)
  98, 109, 12, -19
CCN(CC)c1ccc(NC(=O)C2CCCCC2)c(N(CC)CC)n1
  103, 114, -28, -14
Cc1cccc(NC(=O)C(C)C)c1
  105, 109, 7, ·
Cc1ccc2c(CN(C)c3ccccc3)cc(=O)oc2c1
  102, 98, -30, 0
C/C(=N\NC(=O)c1cc2ccccc2cc1O)c1cccnc1
  99, 104, 6, -6
C=CCN1CCN(C(c2ccc(C)cc2)c2nnnn2C2CCCC2)CC1 (configuration not stated)
  ·, ·, 38, 5
COc1ccc(Cl)cc1C(=O)CCC(=O)O
  102, 102, -6, 69
COC(=O)c1sc(N)c(C(=O)OC)c1CSc1nnc(Cc2ccccc2)n1C
  106, 107, -35, -1
Nc1ccc2c(c1)OC1(O)c3ccccc3C(=O)C21O (configuration not stated)
  101, 101, -66, -12
COC(=O)COc1ccc2c(C)c(C)c(=O)oc2c1
  102, 104, 4, 102
Cc1cc(C(=O)OCC(N)=O)c2ccccc2n1
  103, 107, ·, 25
N#CC(=C1CCCC1)c1nc(-c2cc3ccccc3oc2=O)cs1
  103, 101, -7, -24
Cc1c(C(=O)O)cc(-c2ccccc2)n1Cc1ccccc1
  102, 96, -1, -17
O=C(CCc1ccc(S(=O)(=O)N2CCCCCC2)cc1)Nc1ccnn1Cc1cccs1
  104, 107, 9, -1
NC(N)=NCCN1CCOCC1
  102, 104, 21, 2
CCN(c1ccccc1)S(=O)(=O)c1ccc(O)cc1
  102, 99, ·, -6
CC(CN1CCOCC1)OC(=O)C1COc2ccccc2O1 (configuration not stated)
  105, 103, 1, ·
COc1ccc(N/N=C(\C#N)C(=N)N2CCCCC2)cc1
  100, 101, -206, 25
Cc1cccn2cc(-c3ccccc3)nc12
  102, 102, -4, 117
NC(N)=N/N=C1\CCc2ccccc21
  102, 100, -20, 24
CN(C)c1ccc(-c2oncc2C#N)cc1
  118, 139, -28, ·
CN(C)C(=O)CSc1nnc2n1C(C)(C)Cc1ccccc1-2
  104, 106, 22, 4
COC(=O)CNS(=O)(=O)c1ccc(C)cc1
  102, 102, -12, 3
